Screening data from PubChem BioAssay.
Rango-impB inh: qHTS Assay for Inhibitors of Rango (Ran-regulated importin-beta cargo) - Importin beta complex formation | Importin subunit beta-1 (Homo sapiens), Q14974 | Rango CFP/YFP FRET sensor + importin beta, 45 min | Potency, µM (highest dose often 92.2 µM), inactives show at the top dose inhibition of complex formation | hit rate 0.031% among 340,000; active = rising FRET ratio curve, often small or poorly fitted; inconclusive = mostly compound fluorescence or quenching in the first reads; inactive = flat curves in all reads;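 note: potency is the fitted concentration of half-maximal effect; 0% = DMSO wells and 100% = buffer wells lacking importin beta; nearly all actives have a fitted effect of over 15% in size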
Target sequence (Q14974 whole entry, looked up): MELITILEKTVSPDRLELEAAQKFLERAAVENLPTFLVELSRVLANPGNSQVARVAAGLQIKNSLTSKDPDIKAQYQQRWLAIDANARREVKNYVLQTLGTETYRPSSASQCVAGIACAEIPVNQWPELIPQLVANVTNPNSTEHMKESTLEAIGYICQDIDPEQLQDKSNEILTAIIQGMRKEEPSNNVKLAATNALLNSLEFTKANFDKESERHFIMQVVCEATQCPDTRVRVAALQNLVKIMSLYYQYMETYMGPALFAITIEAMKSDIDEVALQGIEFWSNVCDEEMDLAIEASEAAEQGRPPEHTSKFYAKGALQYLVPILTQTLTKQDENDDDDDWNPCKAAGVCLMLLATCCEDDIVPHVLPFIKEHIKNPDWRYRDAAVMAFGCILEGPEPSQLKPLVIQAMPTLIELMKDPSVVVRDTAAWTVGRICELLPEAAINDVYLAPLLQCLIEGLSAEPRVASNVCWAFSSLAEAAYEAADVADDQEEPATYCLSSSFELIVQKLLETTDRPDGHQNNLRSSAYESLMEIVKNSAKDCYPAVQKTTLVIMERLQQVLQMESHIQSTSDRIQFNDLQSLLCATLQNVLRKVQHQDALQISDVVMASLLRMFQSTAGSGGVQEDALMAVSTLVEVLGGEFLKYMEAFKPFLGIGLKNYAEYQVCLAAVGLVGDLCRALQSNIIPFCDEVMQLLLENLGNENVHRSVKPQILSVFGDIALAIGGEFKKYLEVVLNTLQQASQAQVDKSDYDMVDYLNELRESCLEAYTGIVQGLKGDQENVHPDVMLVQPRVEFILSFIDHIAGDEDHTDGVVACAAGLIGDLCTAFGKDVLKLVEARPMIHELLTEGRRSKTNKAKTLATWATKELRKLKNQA
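Inhibition scored from the CFP 486 nm/YFP 530 nm FRET ratio 45 min after adding 0.125 microM importin beta to 50 nM Rango biosensor preincubated 5 min with compound (room temperature, PBS with DTT, Tween-20, BSA). No-importin wells as positive control.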
GLA inh pH 4.5: qHTS Assay for Inhibitors of Human alpha-Galactosidase at pH 4.5; Alpha-galactosidase A (Homo sapiens), P06280; activity change, negative = inhibition, % at 105 µM; 230,000 tested, under 10 active; purified enzyme, 4-MU-alpha-Gal fluorescence, pH 4.5; inconclusive = small, poorly fitted or top-dose-only inhibition, or a rising curve; inactive = flat fitted curve, though single readings scatter; no compound was filed as active;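 note: 0% = full activity with enzyme and -100% = basal without enzyme; dose as in the result columns while the protocol names 77 µM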
miR-21 FLuc: qHTS Assay for Modulators of miRNAs and/orActivators of miR-21; HeLa miR-21 FLuc reporter, luciferase, 48 h; Potency, µM (top dose mostly 38.3 µM), for the others: at the top dose reporter change, positive = more light; 340,000 tested, under 10 active; active = well fitted rising curve with a large enough effect; inconclusive = small, poorly fitted or top-dose-only effect; inactive = no such curve, though single readings can be large or run the other way;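 note: % of control where 0% means no effect; miR-21 action dims this reporter so a rising signal means less miR-21 action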
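Luminescence from a firefly luciferase reporter carrying a miR-21 binding site downstream, stably expressed under a CMV promoter in HeLa cells that make miR-21 endogenously, reports miRNA modulation after 48 h compound exposure up to approximately 40uM final.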
Rango dissoc inh: qHTS Assay for Inhibitors of RanGTP induced Rango (Ran-regulated importin-beta cargo) - Importin beta complex dissociation; Snurportin-1 (Homo sapiens) + GTP-binding nuclear protein Ran (Homo sapiens) + Importin …; Biochemical FRET Rango-importin beta, RanGTP-induced dissociation; hit rate 0.071% among 340,000; Potency, µM (highest dose often 46.1 µM), without a hit: at the highest dose activity change, negative = inhibition; AID 540253, 2011; active means falling FRET ratio curve, often poorly fitted, with flat reads before Ran was added; inconclusive means other falling curves, or compound fluorescence or quenching; inactive means flat or rising ratio curve;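 note: potency is the fitted concentration of half-maximal effect; % of control where 0% means no effect; nearly all actives have a fitted effect of over 45% in size; -100% = wells without RanGTP and RCC1; the record marks most hits as doubtful in a second field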
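Rango/importin beta premix (0.1/0.25 uM final), PBS + 1 mM DTT + 0.02% Tween-20 + 0.1% BSA; cpd 5 min RT; FRET pre-read; + RanGTP-RCC1 (0.6 uM Ran, 2 mM GTP, 0.2 uM RCC1); 45 min RT; FRET post-read, ex 430, em 486/530 nm.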
The depositor's hits bear a star; u = inconclusive; x = not tested or not shown; & = joins results of further samples.

SMILES	Rango-impB inh	GLA inh pH 4.5	miR-21 FLuc	Rango dissoc inh
Cc1ccc(C)c2[nH]c(=O)c(CCNC(=O)c3ccc(Br)o3)cc12	0.6%	x	x	2%
O=C(OCc1nnc(-c2ccccc2)o1)C1CCN(C(=O)c2ccc(Cl)cc2)CC1	-2.8%	x	x	-2%
O=C(COc1ccc(Br)cc1)Nc1ccc(CN2CCOCC2)cc1	0.3%	x	9%	10%
Cc1cc(C)n(C(=O)c2c([N+](=O)[O-])c(C)nn2C)n1	1.3%	0	-8%	-15%
Cn1c(SCC(=O)c2ccccc2)nnc1-c1ccco1	u	-14	-41%	5%
CN1CCc2nc(SCc3ccc(C(C)(C)C)cc3)c(C#N)cc2C1	u	-3	-3%	u
Cc1ccc(C(C)(C)C)cc1S(=O)(=O)Nc1nc2ccccc2nc1Cl	2.1%	x	26%	1%
CCCc1cc(C(=O)N2CCCC(C(=O)c3cc(C)c(OC)c(C)c3)C2)n(C)n1 (configuration not stated)	-2.0%	x	4%	20%
CC(C)CN(C)C(=O)CCc1nnc(Cc2cccc(C(F)(F)F)c2)o1	u	9	-48%	0%
Fc1cc(NCc2ccccc2)nc(NCc2ccccc2)n1	-1.3%	3	-50%	6%
COc1ccc(OC)c(C2N(c3cc(C)on3)C(=O)C3CCCN32)c1 (configuration not stated)	2.6%	-3	2%	12%
Cc1ccc(C)c(NC(=O)c2ccc3ccccc3n2)c1	-5.0%	-3	-58%	1%
COc1ccc(OC)c(N(CC(=O)Nc2ccccc2F)S(=O)(=O)c2ccccc2)c1	8.1%	x	x	1%
Cc1ccccc1C(=O)NC(=S)NCCN1CCOCC1	-1.0%	-4	-3%	-2%
COc1ccc(N2CCN(Cc3cc(=O)oc4cc(C)c(Cl)cc34)CC2)cc1	u	0	-2%	-5%
COc1cccc(NC(=O)c2ccccc2N(Cc2ccccc2)S(C)(=O)=O)c1	-0.6%	x	-5%	1%
O=C(Nc1ccc(Br)cc1)c1cccnc1N1CCOCC1	-0.7%	6	5%	8%
O=C(OCC1CC(c2ccccc2)=NO1)c1ccc(Br)cc1 (configuration not stated)	-2.8%	5	1%	1%
COc1ccc(Cl)cc1NC(=O)CSc1nc(=O)n(CCN(C)C)c2c1CCCC2	0.8%	x	x	12%
CCc1cccc(NC(=O)c2cccc3c2C(=O)N(CC2CCCO2)C3)c1 (configuration not stated)	-0.4%	x	2%	11%
COCCCNc1nc(N)c([N+](=O)[O-])c(Nc2cc(OC)ccc2OC)n1	0.2%	0	-17%	2%
O=C1c2cccc([N+](=O)[O-])c2C(=O)N1c1c[nH]c(=O)[nH]c1=O	3.9%	2	0%	-17%
COCCCNC(=S)NCCNc1nc2c(C)c(C)ccc2cc1C#N	u	5	-1%	-1%
Cc1cc(O)c(Oc2cc(C)cc(O)c2O)c(O)c1	-0.1%	3	10%	-18%
CC1CN(C(=S)Nc2ccc(SC(F)F)cc2)CC(C)O1 (configuration not stated)	4.2%	x	17%	8%
Cc1ccc(-c2ccc(=O)n(CCC(=O)N3CCN(c4ccccc4)CC3)n2)cc1	7.4%	x	8%	31%
CCc1ccccc1N(C)S(=O)(=O)c1cc(-c2cc(C)no2)ccc1OC	3.3%	x	1%	13%
COc1ccccc1NS(=O)(=O)c1cc(C(=O)N2CCCC2)ccc1C	0.0%	x	x	-8%
O=C(Nc1cccc(NC(=O)c2cccs2)c1)c1ccc([N+](=O)[O-])o1	-1.2%	1	29%	-4%
COc1ccc(C(=O)COC(=O)CN2C(=O)C3C4C=CC(C4)C3C2=O)cc1 (configuration not stated)	-4.5%	-9	-2%	0%
O=C(O)c1cccc(CN2C(=O)SC(Nc3cccc4ccccc34)C2=O)c1 (configuration not stated)	-1.4%	4	-3%	-13%
CC(C)[C@H](NC(=O)N1CCn2c1nc1ccccc12)C(=O)N[C@@H](Cc1ccccc1)C(=O)O	3.2%	x	-2%	-3%
COc1ccc(OC)c(/C=N/NC(=O)CCc2n[nH]c(=O)[nH]c2=O)c1	u	21	2%	-19%
CCc1nc(C)cn1S(=O)(=O)c1cc(C)c(OC)c(C)c1C	-0.5%	-16	14%	10%
Cc1ccc(-c2nnc(-c3ccc(NC(=O)c4cccs4)cc3)o2)cc1	0.2%	6	1%	-9%
O=c1c2ccccc2c(-c2ccccc2)nn1-c1ccc(Cl)c(Cl)c1	-0.9%	4	0%	-6%
COc1cccc(C(=O)NC(=S)NCc2ccco2)c1	-1.5%	1	-39%	1%
O=C(O)COc1ccc(/C=N/NC(=O)c2ccccc2Br)cc1	-1.4%	3	1%	-10%
CCCC1=Nc2cc(C(=O)N3CCC(C(=O)OCC)CC3)ccc2Sc2ccccc21	-1.1%	x	4%&-5%	29%
Cc1cccc(NC(=O)CSc2nnc(-c3ccco3)n2CC2CCCO2)n1 (configuration not stated)	1.2%	4	3%	4%
Cc1nc2ccccc2n1CC(=O)NCCN1CCCC1	-0.8%	5	-1%	-8%
CCSc1nc(C(F)(F)F)cc(=O)n1-c1ccccc1	u	-22	-5%	-16%
Cc1ccc(-c2csc3nnc(SCC(=O)NCc4ccco4)n23)cc1	0.1%	5	-2%	8%
O=C(Nc1nc2ccccc2[nH]1)c1ccccc1F	-1.9%	0	u	-10%
O=C(NNC(=S)Nc1ccc(Br)cc1Cl)c1ccco1	0.4%	-12	-66%	9%
CCN(CC)c1ccc(S(=O)(=O)N2CCOCC2)cc1NS(C)(=O)=O	0.8%	-6	0%	u
O=C(Cc1ccc(Br)cc1)Nc1ccc(S(=O)(=O)NCC2CCCO2)cc1 (configuration not stated)	-4.4%	1	8%	0%
CCc1ccc(Cn2nnc(C(=O)Nc3cccc(C)c3)c2N)cc1	0.2%	-1	-11%	7%
COC(=O)c1sccc1-n1cccc1C(=O)NCc1ccccc1	2.2%	1	-8%	1%
CCC(Oc1ccc2c(=O)c(-c3ccccc3OC)coc2c1)C(=O)OCc1ccccc1 (configuration not stated)	1.2%	-4	-4%	9%
CCOC(=O)NC(c1ccccc1)C1CCCCC1=O (configuration not stated)	u	3	-1%	7%
COc1ccc(CC(=O)N/N=C/C=C/c2cccc([N+](=O)[O-])c2)cc1OC	3.5%	-10	-9%	18%
COc1ccc(/C=C2/C(=O)N(c3ccccc3)N=C2C)cc1	0.0%	x	x	-5%
O=c1c2c3c(sc2nc2sc(CN4CCOCC4)cn12)CCCC3	0.1%	9	-24%	1%
CCOC(=O)C(C)n1cnc2c(nnn2-c2ccc(F)cc2)c1=O (configuration not stated)	-0.4%	x	-7%	-13%
O=C(NC1CC1)C1=C[C@H](c2ccc(Br)cc2)C[C@H](OCc2ccc(CO)cc2)O1	-4.4%	2	10%	-2%
Cc1cc(C(=O)Nn2cnc3ccccc3c2=O)ccc1[N+](=O)[O-]	-0.9%	4	-6%	-1%
O=C(Nc1ccc2c(c1)OCO2)N1CCCc2ccccc21	-2.6%	u	-62%	-16%
Cc1nc2ncnn2c(C)c1CCC(=O)NCc1ccco1	0.4%	7	-2%	6%
Brc1cnc2nc[nH]c2c1	-0.9%	2	7%	17%

Whole records as entered above. Order of values: Rango-impB inh	GLA inh pH 4.5	miR-21 FLuc	Rango dissoc inh
Cc1cc(C(=O)Nn2cnc3ccccc3c2=O)ccc1[N+](=O)[O-] in the list: -0.9%	4	-6%	-1%
COc1ccc(/C=C2/C(=O)N(c3ccccc3)N=C2C)cc1 in the list: 0.0%	x	x	-5%
Brc1cnc2nc[nH]c2c1 in the list: -0.9%	2	7%	17%

Additional results:
SMILES	Rango-impB inh	GLA inh pH 4.5	miR-21 FLuc	Rango dissoc inh
CC(=O)NC1C(=O)N(CCN2CCOCC2)c2ccc(Cl)cc21 (configuration not stated)	3.8%	x	1%	-7%
C/C(=N\NC(=O)CCC(=O)Nc1ccc(C)c(C)c1)c1cccs1	-2.0%	3	-4%	-5%
CCOc1cc(N2CCOCC2)c(OCC)cc1NC(=O)c1c(-c2ccccc2)noc1C	0.6%	x	x	28%
CCN(CC)c1nc(C)nc2c1cnn2CCc1ccccc1	-1.7%	-8	-64%	5%
Nc1cccc(C2=Nc3cccc4cccc(c34)N2)c1	-0.8%	-2	-1%	10%
NC(=O)NC(=O)COC(=O)c1ccc(OC(F)F)cc1	-0.7%	3	-2%	10%
Cc1cc(C)c(OCC(=O)OCC(=O)NCCC2=CCCCC2)c(C)c1	-1.7%	x	x	-5%
COc1ccc2[nH]cc(C(O)CN3CCC(C(N)=O)CC3)c2c1 (configuration not stated)	2.1%	-5	-1%	4%
COc1ccc(N=Cc2ccccc2O)cc1	-1.9%	x	x	-6%
CC1(C)CC(=O)C2=C(C1)OC(N)=C(C#N)C2c1cn(-c2ccccc2)nc1-c1ccccc1 (configuration not stated)	-1.6%	-8	-11%	-5%
CCOc1ccc(C(=O)NC(=S)NCCCN2CCOCC2)cc1	2.9%	x	0%	8%
COc1ccc(C=NN=C2c3ccccc3-c3ccccc32)cc1OC	-1.8%	x	x	0%
Cc1cccc(NC(=O)C2C3C=CC(O3)C2C(=O)O)c1C (configuration not stated)	u	x	-1%	-2%
C/C(=N\NC(=O)c1cccc(Cl)c1)c1cccc(NC(=O)c2ccco2)c1	-0.3%	0	-9%	-10%
CCOC(=O)c1oc2c(CN3CCN(C)CC3)c(O)ccc2c(=O)c1-c1ccccc1OC	-5.2%	-1	-2%	-19%

Ordered by SMILES length (ascending): part of the list above.
SMILES	Rango-impB inh	GLA inh pH 4.5	miR-21 FLuc	Rango dissoc inh
Cc1ccc(C)c(NC(=O)c2ccc3ccccc3n2)c1	-5.0%	-3	-58%	1%
NC(=O)NC(=O)COC(=O)c1ccc(OC(F)F)cc1	-0.7%	3	-2%	10%
CC(C)CN(C)C(=O)CCc1nnc(Cc2cccc(C(F)(F)F)c2)o1	u	9	-48%	0%

Next section.
SMILES	Rango-impB inh	GLA inh pH 4.5	miR-21 FLuc	Rango dissoc inh
CCc1nnc(NC(=O)CSc2nnc(Cc3cc(=O)[nH]c(=O)[nH]3)n2-c2cccc(OC)c2)s1	-2.8%	4	-7%	2%
NC(=O)COc1ccc(-c2noc(COc3ccccc3[N+](=O)[O-])n2)cc1	-0.8%	4	-24%	10%
Cc1ccc(NC(=O)NC(=O)CSc2nnc(-c3ccc(OC(F)F)cc3)n2N)c(C)c1	-0.3%	12	-13%	-1%
O=C(C/C=N\O)Nc1ccc(Oc2ccccc2)cc1	1.5%	1	-31%	1%
COC(=O)CC1=NN(c2nc3ccccc3s2)C(=O)/C1=C/N(C)C	u	4	-6%	-13%
Cc1ccc(C2OCC3(CO)COC(c4ccc(C)cc4)N23)cc1 (configuration not stated)	2.6%	-2	-5%	-7%
O=C(CCCc1c[nH]c2ccccc12)N1CCOCC1	-0.2%	-3	-24%	14%
CSc1c(SCc2ccccc2)cnn(-c2ccccc2)c1=O	3.2%	-7	-32%	0%
COC(CNC(=O)c1ccc(CS(=O)(=O)c2ccc(C)cc2)o1)OC	-1.3%	x	-6%	-7%
COc1ccc(Nc2cc(=O)n(C3CCCCC3)c(=O)[nH]2)c(OC)c1	4.0%	1	-2%	9%
Cc1ccc(S(=O)(=O)N2C(=O)CCC2C(=O)NCc2ccco2)cc1 (configuration not stated)	-5.5%	3	2%	-7%
CC(C)c1nnc(NC(=O)c2nc(S(=O)(=O)Cc3ccc(F)cc3)ncc2Cl)s1	0.4%	x	u	16%
COc1ccc2[nH]c(=O)c(-c3noc(-c4ccc(F)cc4)n3)cc2c1	u	-4	-46%	-26%
Cc1ccc(NC(=O)[C@@H](NC(=O)c2cccc(S(=O)(=O)N3CCOCC3)c2)C(C)C)cc1C	-0.2%	-1	-3%	1%
Cn1nc2c3ccccc3n(Cc3ccc(F)cc3)c2nc1=S	u	6	-3%	-6%

This is a subset. The share of hits here may be higher or lower than overall.
